Bioassay records (PubChem)
PrP UTR inh – inhibition of PrP 5' UTR reporter expression; cell-based PrP 5' UTR mRNA reporter, plate reader; inhibition, % (concentration not given with the values); 340,000 compounds, 0.35% hits; AID 488862;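 active means every replicate at 50% or more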;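 further: 0 = median of the neutral control wells; tested in H4 reporter cells; numbers are from one replicate; inactives centre near -14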
Mtb hypoxia rep – inhibitors of hypoxia-regulated fluorescent reporter in Mycobacterium tuberculosis; 300,000 compounds, 0.1% hits; fluorescence inhibition, % (no concentration beside the values); M. tuberculosis hypoxia-regulated fluorescent reporter, fluorescence; AID 1159583;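 active means 35 to 45% if threefold the growth effect, above 45% if 1.5-fold the growth effect; inactive means the rest, general growth blockers included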;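 further: wells of about 50 µL received 100 nL stock; 0% = vehicle wells and 100% = reference inhibitor wells; whole bacteria with a GFP reporter of the hypoxia response; strong numbers were not always called active; many hits fall short of the cut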
Autofluor counter – flagged as autofluorescent in microsphere protease counterscreen | compound autofluorescence counterscreen, microsphere flow cytometry; hits give high values | fluorescence intensity (no concentration beside the values) | 360,000 compounds, 3.1% hits | AID 624483;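 active means at least 3 SD above the mean of all compounds, about 16000 in these data; inconclusive means too few beads counted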;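 further: 100 nL of 1 mM stock went into each well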
RN4220 kill – S. aureus RN4220 growth inhibition | OD600, 16 h | inhibition, % (test concentration not listed) | 330,000 compounds, 0.33% hits;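 active means z-score of -3 or lower and OD600 up to 0.18 on both plates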;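 further: plate controls were untreated cells for no effect and reference antibiotic for full effect; stock transfer was 100 nL into about 80 µL; one replicate is shown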
BJeLR lethal – kills HRASV12-expressing BJeLR cells | BJeLR (HRASV12) viability, CellTiter-Glo ATP luminescence, 48 h; reference of the scale not given here | inhibition, % (concentration not given with the values) | 300,000 compounds, 0.17% hits | AID 1554;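 active means replicate mean above 50%; inconclusive means above 50% but judged a plate artefact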;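 further: 50 nL library stock added to about 25 µL; numbers are from one replicate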
ugtP null kill – growth inhibition of S. aureus ugtP deletion strain. growth inhibition, % (no concentration beside the values). S. aureus RN4220 ugtP deletion, OD600 growth, 16 h; some inactives read as strong as hits. AID 1259309. 330,000 compounds, 0.54% hits;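 active means z-score under -3 and OD600 up to 0.15 on both plates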;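 further: plate controls were untreated wells for no effect and antibiotic for full effect; wells of about 80 µL received 100 nL stock; the first replicate is given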
Mtb hypoxia rep growth – recorded beside Mtb hypoxia rep, whose call it bears; growth inhibition, %; measured here: M. tuberculosis growth (absorbance);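 0% = vehicle and 100% = reference antibiotic; read after six days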
An asterisk follows results filed as active; ? = inconclusive; . = no result given; & = joins results of further samples.

#1 CCCC(C)NC(=O)COC(=O)c1ccc(Cl)c(S(N)(=O)=O)c1 (stereo not drawn)
#2 COc1ccc(-c2c([C@H]3[C@H]4C=CC[C@@H](C)[C@@H]4C(=O)N3Cc3ccccc3)ccc3ccccc23)cc1
#3 O=C(Nc1cccc(Cl)c1)c1cc(N=Nc2ccc([N+](=O)[O-])cc2Cl)ccc1O
#4 CCc1ccccc1NC(=O)Nc1ccc2c(c1)OCO2
#5 COc1ccc(OC)c(NC(=O)CS(=O)(=O)c2cn(CC(=O)N3CCOCC3)c3ccccc23)c1
#6 C=CCn1c(O)c(N=NC(=O)CNC(=O)/C=C/c2ccco2)c2ccccc21
#7 CNC(=O)c1ncnnc1N(C)C(=O)NCc1ccccc1
#8 O/N=C(\COc1ccccc1O)c1ccccc1
screen / no.	1	2	3	4	5	6	7	8
PrP UTR inh	6.3	-17.2	-12.6	-27.7	-39.6	-41.2	10.3	-22.0
Mtb hypoxia rep	.	.	70.1*	-11.6	-7.6	3.7	-4.7	.
Mtb hypoxia rep growth	.	.	6.6*	-18.8	6.9	-1.5	10.0	.
Autofluor counter	2589	3622	3649	2475	6372	7768	5895	12878
RN4220 kill	2.2	.	94.4*	1.2	-0.5	10.8	-2.5	.
BJeLR lethal	-1.4	3.6	0.5	3.9	3.5	4.9	6.8	7.4
ugtP null kill	-0.3	.	99.6*	-5.8	0.4	-2.1	-2.4	.

#9 COc1ccc(OC)c(C2CC(c3ccc(NS(C)(=O)=O)cc3)=NN2C(=O)c2ccccc2)c1 (stereo not drawn)
#10 O=C(Nc1ccccc1C(=O)NCc1ccc(Cl)cc1)c1ccco1
#11 COc1ccc(OC)c(NC(=O)C(=O)NNC(=O)COc2ccc(Br)cc2C)c1
#12 Cn1c(=O)[nH]c(=O)c2c1nc(Br)n2CCCCSc1nc2ccccc2o1
#13 O=C(COC(=O)C1CC1)Nc1ncc(Cl)cc1Cl
#14 COc1ccc(C(=O)N2CCNC(=O)C2CC(=O)Nc2cccc(Cl)c2Cl)cc1 (stereo not drawn)
#15 Nc1nnn(CC(=O)NN=Cc2ccco2)n1
#16 CC(=NNS(=O)(=O)c1ccc(C)c(C)c1)c1ccncc1
screen / no.	9	10	11	12	13	14	15	16
PrP UTR inh	-7.9	-0.7	-18.5	-18.4	-12.7	-8.3	.	.
Mtb hypoxia rep	12.3	-4.1	7.2	-1.7	2.6	.	10.2	-4.7
Mtb hypoxia rep growth	15.7	8.3	3.7	5.4	4.4	.	5.0	4.4
Autofluor counter	2598	4590	4461	24178*	5645	?	.	.
RN4220 kill	0.3	5.4	26.1	0.7	-0.4	.	2.8	1.5
BJeLR lethal	-4.3	-23.3	0.6	.	5.1	1.3	.	.
ugtP null kill	-2.3	-27.7	15.6	-0.1	4.5	.	13.2	3.1

#17 O=C(NCc1cccc(Cl)c1)C1CCC(=O)N(CC2CCCCC2)C1 (stereo not drawn)
#18 COc1ccc(-n2c(Cc3cc(=O)[nH]c(=O)[nH]3)nnc2SCC(=O)NC2CCCC2)cc1
#19 O=C(NN1C(=O)NC2(CCCCC2)C1=O)c1ccc(Cl)c(Cl)c1
#20 CCCCNS(=O)(=O)c1ccc(NC(=O)c2c(-c3ccccc3Cl)noc2C)cc1
#21 O=C1CCCC(O)=C1N=Nc1c(Cl)cc(Cl)cc1Cl
#22 O=C1CCC(C(=O)Nc2cccc3ccccc23)N1 (stereo not drawn)
#23 N/C(COc1ccc(F)cc1)=N\NC(=O)c1cccnc1Oc1ccccc1
#24 Cc1ccc(C(=O)N2CC3(C(C)C)CN(C(=O)c4ccc(C)cc4)CC(C(C)C)(C2)C3=O)cc1
screen / no.	17	18	19	20	21	22	23	24
PrP UTR inh	-14.2	61.2*	1.6	-11.0	-13.2	-15.2	-11.4	-6.4&-16.2
Mtb hypoxia rep	2.6	.	10.3	1.1	10.2	-1.1	.	1.7
Mtb hypoxia rep growth	3.4	.	4.8	1.4	3.2	1.7	.	12.3
Autofluor counter	4031	5916	.	19198*	2065	2497	3438	3360
RN4220 kill	-0.3	-3.7	7.0	6.3	4.6	4.0	8.4	4.9
BJeLR lethal	12.9	-10.6	.	7.1	-6.5	-0.2	4.7	1.0
ugtP null kill	3.4	-2.7	5.8	-9.2	0.5	9.8	6.1	-1.1

#25 C=CCn1c(SCC(=O)Nc2c(C)n(C)n(-c3ccccc3)c2=O)nnc1-c1cccnc1
#26 COC(=O)c1[nH]c2cc(OC)ccc2c1NC(=O)CN1CCN(c2cccc(C)c2)C(C)C1 (stereo not drawn)
#27 Cn1c(=O)[nH]c(=O)c2c1nc(N1CCCCCC1)n2CCOc1ccccc1
#28 CC1Sc2ccc(S(=O)(=O)N3CCC(C(=O)Nc4ccc(Cl)cc4)CC3)cc2NC1=O (stereo not drawn)
#29 COc1ccc(C2=Nc3ccccc3OC2)cc1
#30 Cn1c2ccccc2c(=O)c2c(=O)n(Cc3ccco3)c(COc3ccccc3)nc21
#31 CS(=O)(=O)N1N=C(c2cccs2)CC1c1ccccc1 (stereo not drawn)
#32 CCCOc1ccc(C2C(C(=O)/C=C/c3ccco3)=C(O)C(=O)N2CCN2CCOCC2)cc1OC (stereo not drawn)
screen / no.	25	26	27	28	29	30	31	32
PrP UTR inh	-2.0	-11.7	-11.3	-8.6	-115.6	-15.1	-7.7	-4.0
Mtb hypoxia rep	0.5	-69.4	13.1	-5.7	17.4	-11.8	0.4	6.8
Mtb hypoxia rep growth	8.9	-2.5	3.9	-1.8	19.4	5.6	0.2	9.9
Autofluor counter	3651	4301	3291	6875	3007	2204	4440	4257
RN4220 kill	-1.8	-2.7	4.6	-5.3	15.2	4.1	6.3	2.4
BJeLR lethal	.	-12.8	-15.3	-1.7	6.5	-0.7	0.3	-1.4
ugtP null kill	-3.3	-18.9	5.7	-10.8	0.5	-0.5	10.0	2.8

#33 CC(C)C(NC(=O)c1ccco1)C(=O)NCC(c1ccco1)N1CCCCC1 (stereo not drawn)
#34 O=C(Nc1ccc(F)cc1)Nc1nnc(Cc2ccccc2F)s1
#35 O=C(N1CCOCC1)N1CCN(C(c2ccccc2)c2ccccc2)CC1
#36 O=S(=O)(/N=C(/c1ccccc1Cl)N1CCOCC1)c1ccccc1
#37 CCC(C)OC(=O)C1=C(C)NC(=O)CC1c1ccccc1OC (stereo not drawn)
#38 COC(=O)C1=C(C(=O)OC)C2c3ccccc3C1c1ccccc12
#39 O=[N+]([O-])c1ccccc1NN=Cc1ccccc1
#40 Cc1onc(-c2c(F)cccc2Cl)c1C(=O)NNC(=O)C1CCN(Cc2cccc(F)c2)CC1
screen / no.	33	34	35	36	37	38	39	40
PrP UTR inh	-20.5	-18.9	-0.1	-13.9	-6.7	-4.6	.	-24.6
Mtb hypoxia rep	0.5	3.4	6.1	.	.	3.6	15.7	0.5
Mtb hypoxia rep growth	9.4	-5.8	11.7	.	.	3.8	5.0	8.1
Autofluor counter	10226	3530	21654*	10509	2185	3873	.	4270
RN4220 kill	4.0	-0.5	1.4	.	0.5	0.0	4.9	-1.1
BJeLR lethal	0.1	0.0	0.9	-3.4	-6.9	.	.	-4.3
ugtP null kill	0.8	1.4	14.0	.	0.9	8.2	-1.7	-2.5

Shown bar-delimited: part of the list above
No. | canonical_smiles | PrP UTR inh | Mtb hypoxia rep | Mtb hypoxia rep growth | Autofluor counter | RN4220 kill | BJeLR lethal | ugtP null kill
35 | O=C(N1CCOCC1)N1CCN(C(c2ccccc2)c2ccccc2)CC1 | -0.1 | 6.1 | 11.7 | 21654* | 1.4 | 0.9 | 14.0
36 | O=S(=O)(/N=C(/c1ccccc1Cl)N1CCOCC1)c1ccccc1 | -13.9 | . | . | 10509 | . | -3.4 | .
37 | CCC(C)OC(=O)C1=C(C)NC(=O)CC1c1ccccc1OC (stereo not drawn) | -6.7 | . | . | 2185 | 0.5 | -6.9 | 0.9
38 | COC(=O)C1=C(C(=O)OC)C2c3ccccc3C1c1ccccc12 | -4.6 | 3.6 | 3.8 | 3873 | 0.0 | . | 8.2

Remaining list, next part
#41 O=C(CSc1nc2ncc(Br)cc2[nH]1)Nc1ccc2c(c1)OCO2
#42 Cc1cccc(Cl)c1NC(=S)N1CCN(c2ccc([N+](=O)[O-])cn2)CC1
#43 CCCCC1C(=O)CC[C@H]2[C@@H]1CC(=O)[C@@H]2C/C=C\CCCC(=O)O (stereo partly drawn)
#44 CC(C)C(=O)NCCSc1c[nH]c2ccccc12
#45 CCOC(=O)CC(=O)Nc1nc2ccccc2s1
#46 CC(CCCC(C)(C)O)NCc1cn[nH]c1-c1ccc2c(c1)OCO2 (stereo not drawn)
#47 Cc1ccc2occ(C3NC(C(=O)O)CS3)c(=O)c2c1 (stereo not drawn)
#48 O=C(NCCCO)C(=O)NCC1OCCCN1S(=O)(=O)c1cccs1 (stereo not drawn)
screen / no.	41	42	43	44	45	46	47	48
PrP UTR inh	-17.5	7.5	-9.4	-11.7	-11.3	-26.1	-12.0	3.7
Mtb hypoxia rep	.	-1.2	.	8.6	.	10.0	1.3	5.7
Mtb hypoxia rep growth	.	5.9	.	7.1	.	-0.3	5.2	11.2
Autofluor counter	2750	4227	6032	5688	4849	3379	2505	5521
RN4220 kill	-5.5	2.9	.	14.6	-0.9	0.2	-1.5	1.3
BJeLR lethal	-1.6	5.1	4.7	-9.9	-5.3	-7.2	-6.8	1.4
ugtP null kill	6.6	-1.7	.	15.6	0.2	2.0	2.2	1.2

#49 Cc1cc([N+](=O)[O-])nn1CC(=O)N1N=C(C(F)F)CC1(O)C(F)F (stereo not drawn)
#50 O=C(Nc1cccc(F)c1)NC1(C(=O)N2CCOCC2)CCCCC1
#51 CC1(C(=O)NCCc2c[nH]c3ccccc23)C=CC2(CCCCC2)N1C(=O)c1ccccc1 (stereo not drawn)
#52 O=C(O)C1=C[C@@H](c2ccc(Br)cc2)C[C@@H](OCc2ccc(CO)cc2)O1
#53 CN(Cc1cccc2ccccc12)C(=O)c1cc(COc2c(F)cccc2F)on1
#54 O=C(CCn1cccc1)Nc1ccc(F)cc1
#55 CCOC(=O)c1cc(S(=O)(=O)NCc2ccco2)cn1C
#56 O=C(COC(=O)c1ccc(S(=O)(=O)N2CCCC2)cc1)NCc1ccc(F)cc1
screen / no.	49	50	51	52	53	54	55	56
PrP UTR inh	-14.5	-26.6	-21.3	-23.6	-17.0	-16.8	7.8	1.0
Mtb hypoxia rep	6.5	2.3	7.9	.	11.5	17.5	-0.7	.
Mtb hypoxia rep growth	11.4	5.9	8.1	.	11.0	11.5	-1.6	.
Autofluor counter	2469	3833	4045	3072	2299	9899	4110	3323
RN4220 kill	2.0	5.4	1.0	.	3.5	4.4	3.5	2.6
BJeLR lethal	-5.4	7.7	-7.2	4.4	0.5	-12.7	8.7	-4.8
ugtP null kill	1.3	1.3	-36.3	.	9.8	5.4	-2.8	6.5

#57 CCSCC1COC(c2cccn2Cc2ccc(C)cc2)=N1 (stereo not drawn)
#58 CCOC(=O)Cc1csc(NC(=O)c2ccc(F)cc2)n1
#59 CC(C)c1ccc(/C=N/NC(=O)CCNC(=O)c2ccccc2)cc1
#60 CCOC(=O)c1c(-c2ccccc2Cl)cn2ccccc12
#61 CCCCNCc1cc(Cl)c(OCCC)c(OCC)c1
#62 CCN(CC)c1ccc(NC(=O)CCCCCN2C(=O)c3ccccc3C2=O)cc1
#63 Cn1c(SCC(=O)N2CCCc3ccccc32)nnc1-c1c[nH]c2ccccc12
#64 COc1ccc(S(=O)(=O)N(C(C)=O)c2ccc(OC(C)=O)c3ccccc23)cc1[N+](=O)[O-]
#65 O=C1Nc2ccccc2C1c1ncc(C(F)(F)F)cc1Cl (stereo not drawn)
screen / no.	57	58	59	60	61	62	63	64	65
PrP UTR inh	-17.0	-15.0	-36.8	-32.8	-27.9	-15.8	-1.9	-25.9	-16.9
Mtb hypoxia rep	.	4.1	.	-2.2	7.8	4.0	6.0	9.3	11.7
Mtb hypoxia rep growth	.	3.2	.	-3.8	11.1	15.8	10.4	-2.4	-2.3
Autofluor counter	4533	3925	3772	21999*	11191	8472	3033	2017	4101
RN4220 kill	-2.6	0.3	.	-1.2	-2.5	4.7	-6.6	12.0	-0.3
BJeLR lethal	-3.5	-0.6	3.0	2.8	-2.1	15.3	-8.5	-10.2	-2.3
ugtP null kill	21.2	11.0	.	16.0	-7.2	21.9	-6.4	-5.9	-3.1
